Assay outcomes (PubChem BioAssay)
MT1-MMP reporter = inhibitors of MT1-MMP promoter transcription, cell-based, luciferase reporter, luminescence (AID 618); MT1-MMP promoter luciferase reporter cells, luminescence; calls from a first round at 10 µM; hits with a dose series show EC50 in µM; 0.62% of 87,000 active;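 active means over half of the reporter light lost at 10 µM or EC50 under 50 µM; inactive means the rest and hits that failed the dose series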;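 further: actives suppress MT1-MMP promoter-driven transcription so potencies describe inhibitors; HT1080 fibrosarcoma cells; overnight exposure; toxic or luciferase-blocking compounds were not removed from the actives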
WNV protease inh = blocks West Nile virus NS2B-NS3 protease activity; AID 577; 0.18% of 65,000 active; z-score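 (tested at a level between 10 and 100 µM)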; WNV NS2B-NS3 protease, fluorogenic substrate Ex360/Em465; active compounds read low;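 active means z-score at -3 or under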;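 further: score is relative to mean and spread of the compound wells of a plate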
Target sequence (P06935 1371-1501 limits assumed): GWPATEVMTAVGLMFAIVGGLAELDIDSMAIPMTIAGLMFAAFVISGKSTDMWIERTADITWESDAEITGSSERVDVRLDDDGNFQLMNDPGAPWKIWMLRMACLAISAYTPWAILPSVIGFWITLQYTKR
Target sequence (P06935 1502-1679 limits assumed): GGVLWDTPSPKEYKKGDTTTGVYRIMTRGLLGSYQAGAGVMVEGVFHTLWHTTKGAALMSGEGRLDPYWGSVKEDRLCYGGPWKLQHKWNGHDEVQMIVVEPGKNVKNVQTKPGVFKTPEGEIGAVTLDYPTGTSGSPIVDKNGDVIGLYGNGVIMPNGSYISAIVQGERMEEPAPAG
Hsc70 ATP site = small molecules displacing fluorescent ligand from Hsc70 – biochemical, fluorescence polarization, primary screen (AID 568) | displacement, % at 20 µM, or IC50 in µM where a hit was titrated | Hsc70 fluorescence polarization, probe displacement; higher % means a stronger effect; strong numbers were not always called active | 83,000 tested, under 10 active;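 active means displacement above 50% without optical interference and an IC50 on retest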;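 further: ATPase domain with a fluorescein-tagged ATP probe; 0% = vehicle and 100% = excess ADP; read after one hour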
* marks the source's active call; other numbers are inactive results; i = inactive; nt = not tested or not shown; + = active, no number.

Molecule | MT1-MMP reporter | WNV protease inh | Hsc70 ATP site
CCC(CCC(=O)Nc1ccn(-c2ccccc2)n1)C(=O)O (centres undefined) | i | -1 | 2.4%
CCc1cc(C(=O)COc2ccccc2F)c(O)cc1O | i | -1 | 20%
Cc1cc(C(=O)NCCC2=CCCCC2)no1 | i | -0.56 | 0.4%
Cc1ccc(C2C(C#N)=C(N)Oc3n[nH]c(-c4cccs4)c32)cc1 (centres undefined) | i | nt | 1.7%
Cc1cc(C)nc(SCc2nnc(SCC(=O)N3CCCc4ccccc43)n2C)n1 | i | 0.89 | 0.2%
CS(=O)(=O)Cc1nc2ccccc2oc1=O | i | -0.25 | 0.3%
CC1(C)CC(N2CCN(c3ccccc3)CC2)=CC(=[N+]2CCCC2)C1 | i | -0.24 | -1.2%
O=C(O)C12CC3CC(C1)CC(n1cnc(Cl)n1)(C3)C2 | i | 0.33 | 2.6%
OC(COc1ccc2c(c1)OCO2)CN1CCc2ccccc2C1 (centres undefined) | i | 1.8 | 1.3%
CCOC(=O)c1sc(=S)n(CC)c1N | i | -0.61 | 0.7%
CC(C)(Oc1ccc(Cl)cc1)C(=O)OCC(=O)N1CCCC1 | i | -0.06 | 4.6%
CN(Cc1ccccc1)C(=O)c1ccccc1NC(=O)c1ccco1 | i | 0.32 | -2.3%
Cc1ccc(-c2nnn(CC(=O)N(Cc3cccs3)C(C(=O)NC(C)(C)C)c3ccco3)n2)o1 (centres undefined) | i | 0.1 | 1.7%
CN1/C(=C\C(=O)COC(=O)C2COc3ccccc3O2)C(C)(C)c2ccccc21 (centres undefined) | i | 1.1 | -3.8%
O=C(c1ccccc1CCc1ccccc1)N1CCOCC1 | i | -0.17 | 8.2%
Cc1cccc(NC(=O)CCNS(=O)(=O)c2cccc3nsnc23)c1 | i | 0.31 | 1.2%
Cc1cc(C)c(NC(=O)CCCOC(=O)C2=COCCO2)c(C)c1 | i | -0.83 | 0.5%
CCOC(=O)c1c(C)n(C)c2ccc(OCC(N)=O)cc12 | i | 0.93 | 2.8%
CC(C)=CC(=O)Nc1ccccc1C(N)=O | i | -0.88 | 6.7%
CCOc1cc(N2CCOCC2)c(OCC)cc1NS(=O)(=O)c1ccc(Cl)s1 | + | 0.33 | 0.9%
CCOc1cc(C2C(C#N)=C(N)Oc3n[nH]c(CC)c32)ccc1OCCN1CCOCC1 (centres undefined) | i | 0.19 | 2.2%
Cc1nn(-c2ccccc2)c2c1C(c1ccc(F)cc1F)C(C#N)=C(N)O2 (centres undefined) | i | -1.1 | -3.0%
CCn1c(SCC(=O)Nc2nccs2)nnc1-c1ccccc1 | i | -0.54 | 0.1%
CC(C)OC(=O)c1ccc(NC(=O)C2C3CC4OC(=O)C2C4C3)cc1 (centres undefined) | i | 1.5 | -6.4%
CC(C)N(C(=O)c1ccc2nc3c4ccccc4c4ccccc4c3nc2c1)C(C)C | i | nt | 3.0%
CCOC(=O)C1CCCN(c2c(N3CCN(c4cccc(Cl)c4)CC3)c(=O)c2=O)C1 (centres undefined) | i | 1.2 | -1.0%
CCc1ccc(CNc2ccc3c(c2)ncn3C)cc1 | i | -0.87 | -10%
CCOC(=O)c1cnc2c(Cl)c(Cl)ccc2c1N1CCN(C)CC1 | i | -0.82 | -7.4%
Cc1ccc(NC(=O)N2CCC(O)(c3ccc(Cl)cc3)CC2)cc1 | i | -1.1 | 6.2%
CCOC(=O)CSc1nc(CC)nc2ccccc12 | i | -1.1 | 5.8%

Next part, overlapping the part above by six compounds.
Molecule | MT1-MMP reporter | WNV protease inh | Hsc70 ATP site
CC(C)N(C(=O)c1ccc2nc3c4ccccc4c4ccccc4c3nc2c1)C(C)C | i | nt | 3.0%
CCOC(=O)C1CCCN(c2c(N3CCN(c4cccc(Cl)c4)CC3)c(=O)c2=O)C1 (centres undefined) | i | 1.2 | -1.0%
CCc1ccc(CNc2ccc3c(c2)ncn3C)cc1 | i | -0.87 | -10%
CCOC(=O)c1cnc2c(Cl)c(Cl)ccc2c1N1CCN(C)CC1 | i | -0.82 | -7.4%
Cc1ccc(NC(=O)N2CCC(O)(c3ccc(Cl)cc3)CC2)cc1 | i | -1.1 | 6.2%
CCOC(=O)CSc1nc(CC)nc2ccccc12 | i | -1.1 | 5.8%
Cc1ccc(O)c(CC(C)C)n1 | i | -1 | -4.8%
O=C(NC1CCCC1)C(c1ccccn1)N(C(=O)c1csnn1)C1CCCCC1 (centres undefined) | i | nt | 4.6%
O=C(Nc1cccc(C(F)(F)F)c1)C1CCCN1S(=O)(=O)c1cccc2cccnc12 (centres undefined) | i | 0.18 | 2.9%
COc1ccc(Cl)cc1NC(=O)CCN1CCN(c2ccccc2C)CC1 | i | -0.29 | -3.6%
CC(=O)Nc1ccccc1NC(=O)CN(C)S(=O)(=O)c1ccc(C)cc1 | i | -0.19 | -1.2%
CC(=O)/C(C#N)=C1\NC(=O)C(Cc2ccccc2Cl)S1 (centres undefined) | i | -0.33 | 0.8%
COc1ccc(C2N(C(=O)c3ccccc3)CCN2C(=O)c2ccccc2)cc1 | i | -0.98 | -7.2%
O/N=C/c1ccc(OCC(O)COc2ccc(/C=N/O)cc2)cc1 | i | 0.13 | -4.8%
COC(=O)c1ccc2c(=O)n(CCCCCC(=O)N3CCN(c4ccc(F)cc4)CC3)c(=O)[nH]c2c1 | i | -0.26 | -1.1%
COC(=O)C1C2C=CC3(CN(c4cccc(C)c4)C(=O)C13)O2 (centres undefined) | i | -1.8 | 6.1%
CCCNC(=O)C(NS(=O)(=O)c1cccc2nsnc12)c1ccccc1 (centres undefined) | i | 0.27 | 0.5%
CN(C)S(=O)(=O)c1ccc(C(=O)Nc2ccccc2OC(F)(F)C(F)F)cc1 | i | 0.07 | -2.5%
CCOC(=O)N1CCN(c2nc(-c3ccco3)cc(C(F)(F)F)n2)CC1 | i | -0.47 | -0.7%
CCCn1c(SCC(=O)c2ccc3c(c2)OCCO3)nc2c1c(=O)n(C)c(=O)n2C | i | 1.1 | 0.2%
CCC(C)NC(=O)Cn1cccc1C(=O)c1ccccc1 (centres undefined) | i | 1.1 | -2.9%
O=C(NC1CCCCC1)c1ccc(Br)o1 | i | 2.4 | -8.6%
CCc1nc2ccccc2c(C(=O)OCC(=O)NCCCN2CCCC2=O)c1C | i | 0.1 | 2.8%
Cc1csc(NC(=O)c2cc(C)oc2C)n1 | i | nt | 6.3%
CCCC(=O)Nc1ccc(-c2nc3cc(C)c(C)cc3o2)cc1 | i | -1.1 | -3.0%
CCNc1nc(N)nc(Oc2ccc(OCCOc3ccc(Cl)cc3Cl)nn2)n1 | i | -0.62 | -7.8%
CCN(CCCc1ccccc1)CCCc1ccccc1 | i | 1.8 | -0.9%
Cc1cc2n(n1)SC(Nc1ccccc1)N2 (centres undefined) | i | -0.5 | 2.4%
N#CC1=C(N)SC(N)=C(C#N)C1CCc1ccccc1 | i | -0.71 | -26%
c1ccc2c(c1)Cn1c-2nc2ccccc21 | i | -0.86 | -1.1%
C=C(C)Cn1c(SCC(=O)O)nc2c1c(=O)[nH]c(=O)n2C | i | -0.1 | 3.9%
CCCc1[nH]nc2c1C(c1cccc(OC)c1)C(C#N)=C(N)O2 (centres undefined) | i | -0.41 | -3.2%
C=CCNC(=O)C1CC(=O)N(c2ccc(Br)cc2)C1 (centres undefined) | i | -1.1 | -6.5%
CC(C)n1nnnc1SCC(=O)Nc1ccc2c(c1)OCO2 | i | nt | -2.3%
CCCCCOC(=O)C1=C(C)Nc2nnnn2C1c1ccc(OC)c(OC)c1OC (centres undefined) | i | 0.25 | 1.7%
O=C(c1ccc(S(=O)(=O)N2CCOCC2)cc1)N1CCCc2ccccc21 | i | nt | -0.2%
CC1(C)OC(=O)N(c2ccccc2)C12C=Cc1cc(Br)ccc1O2 (centres undefined) | i | nt | 2.3%
Cc1cc2nncn2c2ccccc12 | i | nt | 1.6%
COc1ccc(/C(CC2(O)C(=O)Nc3ccccc32)=N\O)cc1 (centres undefined) | i | 0.65 | 5.0%
Cc1ccnc(NC(=O)CCC2COc3ccccc3O2)c1 (centres undefined) | i | -1.3 | 4.0%
O=C(NCc1ccco1)c1cc2n(n1)C(C(F)(F)F)CC(c1ccc(Cl)c(Cl)c1)N2 (centres undefined) | i | 0.5 | -11%
CCN(CC)C(=O)CSc1nc2ccccc2c(=O)n1-c1cccc(OC)c1 | i | -0.88 | 1.0%
CCOC(=O)c1c(N)n[nH]c1-c1ccccc1 | i | nt | 8.7%
CCOC(=O)C(C)(C)Sc1nc2c(cnn2-c2ccc(C)cc2)c(=O)[nH]1 | i | -0.59 | -2.2%
Cc1[nH]c(C)c2c(=O)n(-c3ccccc3)ncc12 | i | -0.46 | -1.2%
O=C1CS/C(=C/C(=O)c2ccccc2)N1 | i | 0.76 | -9.2%
Cc1cc(NC(=O)CSc2nc(-c3ccccc3)c(C#N)c(=O)[nH]2)no1 | i | 0.48 | 2.4%
Cc1nccn1CCC(=O)O | i | -1.6 | -7.2%
Cc1cc(C(=O)OCC(=O)N2CCN(C(=O)c3ccco3)CC2)c(C)n1-c1ccc(F)cc1 | i | 0.47 | -1.6%
O=C(Cn1nc(-c2ccccc2)c2ccccc2c1=O)Nc1ccccn1 | i | -0.49 | -4.6%
Cc1cc(C)nc(N2CCCC(C(=O)Nc3ccc4c(c3)OCO4)C2)n1 (centres undefined) | i | -0.05 | 3.7%
CC(C)CCn1c(N2CCC(C(N)=O)CC2)nc2c1c(=O)[nH]c(=O)n2C | i | -0.18 | -0.7%
CCNCCNC(=O)c1c(O)c2cccc3c2n(c1=O)CCC3 | i | -0.12 | -0.5%
COCCn1c(SCC(=O)c2[nH]c(C)c(C(C)=O)c2C)nc2ccccc21 | i | -0.71 | -7.9%
CC1(C)CC(=O)C=C(NCc2cccs2)C1 | i | 0.2 | 1.3%
CCCOC(=O)c1ccc(-n2nnnc2SCC(=O)N2CCCCC2)cc1 | i | -0.14 | -2.7%
COc1ccc(OCC(=O)Nc2ccccc2OC(F)F)cc1 | i | 0.27 | -3.1%
CCOC(=O)N1CCC(NC(=O)C2CCN(c3ccc(N4CCOCC4)nn3)CC2)CC1 | i | 0.61 | -0.4%
CCN(CC)S(=O)(=O)c1c(Br)cc(C)cc1Br | i | nt | -4.1%
Cc1cc(Nc2ccc(F)cc2)n2nc(C)nc2n1 | i | -1.7 | 3.0%
O=C(CC12CCC(CC1)C2)NCc1ccc2c(c1)OCO2 | i | nt | 0.6%
CCn1cc(C(=O)N2CCN(Cc3ccc4c(c3)OCO4)CC2)c(=O)c2ccc(C)nc21 | i | nt | -0.4%
O=C(CSc1nnnn1-c1cccc2ccccc12)N1CCOCC1 | i | 0.41 | 3.2%
CC(C)(C)NC(=O)c1ccc2c(c1)C(=O)N(C1CCCCC1)C2=O | i | -0.87 | -1.6%
CCc1nnc(NC(=O)c2ccc(S(=O)(=O)N3CCOCC3)cc2)s1 | i | -0.52 | 8.0%
CCC1CCCCN1C(=O)CSc1nnc(-c2ccco2)o1 (centres undefined) | i | 0.64 | -4.5%

Further structures follow:
Molecule | MT1-MMP reporter | WNV protease inh | Hsc70 ATP site
COc1ccc(C(=O)N[C@H](C(=O)NCC2CCCCC2)C(C)C)cc1 | i | nt | -5.4%
CN(C)c1ccc(NC(=O)Nc2cccc(Cl)c2)cc1 | i | -0.24 | -1.9%
Cn1c(CSc2ncn[nH]2)nc2ccccc21 | i | 2.6 | -4.5%
Cc1cc2c3c(c1C)C1(C(=O)N3C(C)(C)CC2C)C(C#N)=C(N)Oc2n[nH]c(C)c21 (centres undefined) | i | -1.7 | 6.9%
CCc1cc2c(=O)c(-c3ccon3)c(N)oc2cc1OC | i | -0.59 | 3.0%
COc1ccc(N(CC(=O)NCc2ccccc2)S(=O)(=O)c2c(C)noc2C)cc1 | i | 1.1 | -2.7%
Cc1cc(NC(=O)COC(=O)c2n[nH]c3ccccc23)no1 | i | 0.03 | -4.6%
COc1ccc(-c2cc3nc4c(c(=O)n3[nH]2)CCC4)cc1 | i | 0.72 | -6.4%
CCOC(=O)c1c(C)nc(-c2ccccc2)nc1NC(=O)CC | i | 1.7 | -1.2%
N#Cc1nc(-c2cccs2)oc1NCCCN1CCOCC1 | i | 2.9 | -5.1%
CC1(C)CC(=O)C2=C(C1)OC(N)=C(C#N)C2c1ccccc1 (centres undefined) | i | -0.56 | -5.1%
c1ccc(OCCCn2nnc(-c3ccncc3)n2)cc1 | i | -0.21 | -0.1%
O=C(COC(=O)C1c2ccccc2Oc2ccccc21)Nc1ccc2c(c1)OCO2 | i | -0.97 | 5.8%
CCOC(=O)c1sc(=S)n2c1[nH]c(=O)c1ccc(C(=O)OC)cc12 | i | 0.38 | -10%
CC(=O)c1cccc(NC(=O)N[C@@H](CC(C)C)C(=O)O)c1 | i | 0.73 | 7.3%
CCN1CCN(/C=N/c2nc(C)cs2)CC1 | i | 1.9 | 1.0%
Cc1ccc(N=C(c2cccs2)N2CCOCC2)cc1 | i | 1.1 | -0.7%
